# ugtP null kill = compounds lethal to S. aureus RN4220 ugtP deletion mutant. hit rate 0.54% among 330,000. OD600 growth, 16 h; some inactives read as strong as hits. growth inhibition, % (no concentration beside the values);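 active = z-score under -3 and OD600 up to 0.15 on both plates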;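 also: plate controls were untreated wells for no effect and antibiotic for full effect; wells of about 80 µL received 100 nL stock; the first replicate is given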
# Bead autofluor = counter-screen for toxin protease inhibitors: compound fluorescence. fluorescence intensity (concentration not given with the values). hit rate 3.1% among 360,000. compound autofluorescence counterscreen, microsphere flow cytometry; active compounds read high. AID 624483;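 active = at least 3 SD above the mean of all compounds, about 16000 in these data; inconclusive = too few beads counted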;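 also: 100 nL of 1 mM stock went into each well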
# RN4220 kill = kills Staphylococcus aureus RN4220. S. aureus RN4220 growth, OD600, 16 h. inhibition, % (concentration not given with the values). hit rate 0.33% among 330,000. AID 1259311;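 active = z-score of -3 or lower and OD600 up to 0.18 on both plates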;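 also: plate controls were untreated cells for no effect and reference antibiotic for full effect; stock transfer was 100 nL into about 80 µL; one replicate is shown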
# PrP UTR inh = suppresses PrP 5' UTR mRNA reporter expression; cell-based PrP 5' UTR mRNA reporter, plate reader; inhibition, % (concentration not given with the values); hit rate 0.35% among 340,000;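 active = every replicate at 50% or more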;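 also: 0 = median of the neutral control wells; tested in H4 reporter cells; numbers are from one replicate; inactives centre near -14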
# BJeLR viability = kills HRASV12-expressing BJeLR cells; BJeLR (HRASV12) viability, CellTiter-Glo ATP luminescence, 48 h; reference of the scale not given here; inhibition, % (no concentration beside the values); hit rate 0.17% among 300,000;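 active = replicate mean above 50%; inconclusive = above 50% but judged a plate artefact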;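 also: 50 nL library stock added to about 25 µL; numbers are from one replicate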
# Mtb hypoxia rep = inhibitors of hypoxia-regulated fluorescent reporter in Mycobacterium tuberculosis; M. tuberculosis hypoxia-regulated fluorescent reporter, fluorescence; hit rate 0.1% among 300,000; fluorescence inhibition, % (concentration not given with the values);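 active = 35 to 45% if threefold the growth effect, above 45% if 1.5-fold the growth effect; inactive = the rest, general growth blockers included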;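 also: wells of about 50 µL received 100 nL stock; 0% = vehicle wells and 100% = reference inhibitor wells; whole bacteria with a GFP reporter of the hypoxia response; strong numbers were not always called active; many hits fall short of the cut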
# Mtb hypoxia rep growth = also measured in Mtb hypoxia rep; calls as there; growth inhibition, %; measured here: M. tuberculosis growth (absorbance);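 0% = vehicle and 100% = reference antibiotic; read after six days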
# * marks the source's active call; other numbers are inactive results; ? = inconclusive; · = no result given; & = joins results of further samples.
1	CC1=NN(c2ccc(C)cc2C)C(=O)C1C(c1ccccc1O)C1C(=O)N(c2ccc(C)cc2C)N=C1C (centres undefined)
2	COc1cccc(C2C(C(=O)c3ccc(C)o3)=C(O)C(=O)N2CCN2CCOCC2)c1OC (centres undefined)
3	CCOC(=O)C1=C(C(F)(F)F)Nc2ncnn2C1c1ccc(OC)c(OC)c1OC (centres undefined)
4	CC(=O)C(Cc1cnc(Cl)s1)(Cc1cnc(Cl)s1)C(C)=O
5	c1ccc(Cc2nnc3sc(-c4ccccn4)nn23)cc1
6	O=C1/C(=C/c2ccc(F)cc2)SC(=S)N1CC(=O)N1CCCCC1c1cccnc1 (centres undefined)
7	COc1ccc(CCNC(=O)Cc2cccc(C(F)(F)F)c2)cc1OC
8	O=C(CN(CCc1ccccc1)S(=O)(=O)c1ccc(Br)cc1)N/N=C/c1ccccc1C(=O)O

Assay by compound,1,2,3,4,5,6,7,8
ugtP null kill,7.9,9.5,-5.9,5.2,12.1,6.1,3.9,·
Bead autofluor,7263,4605,2478,2294,21625*,4428,4189,3745
RN4220 kill,8.8,5.8,-0.3,4.7,5.3,-1.2,1.4,·
PrP UTR inh,-4.9,-5.8,-10.8,-3.5,-29.0,3.1,-26.9,-15.4
BJeLR viability,5.4,-0.6,-4.7,4.5,-9.9,6.0,-3.4,6.7
Mtb hypoxia rep,4.5,9.3,-4.8,·,5.6,16.2,13.8,·
Mtb hypoxia rep growth,4.2,3.9,-2.2,·,1.7,11.8,10.1,·

9	CCS(=O)(=O)N1CCN(c2nc(-c3ccccc3)cs2)CC1
10	CCOCCCn1c(SC(C(=O)Nc2cc(C)ccc2C)c2ccccc2)nnc1-c1ccc(Cl)cc1 (centres undefined)
11	O=C(Nc1ccccn1)c1ccc(CN(c2ccccc2)S(=O)(=O)c2ccccc2)cc1
12	O=C(CCCN1C(=O)/C(=C/c2ccc3c(c2)OCO3)SC1=S)Nc1cccc(C(=O)O)c1
13	CC(=O)CC1(O)C(=O)N(Cc2ccccc2)c2ccccc21 (centres undefined)
14	O=C1CCC/C1=C/Nc1cccc(F)c1
15	CCC(=NC1CC1)c1c(O)n(-c2ccc(OC)cc2)c(=O)[nH]c1=O
16	CN1CC(=O)N2C3c4ccccc4OCC3C(c3ccccc3)[C@]2(C)C1=O (some centres undefined)

Assay by compound,9,10,11,12,13,14,15,16
ugtP null kill,16.7,-9.4,3.4,1.6,-6.7,-2.1,-5.1,3.9
Bead autofluor,11344,2393,2619,4587,3746,·,3304,·
RN4220 kill,-0.5,-1.3,13.6,10.5,2.7,4.8,-13.3,3.4
PrP UTR inh,-31.3,2.7,-25.9,7.1,-6.3,-23.8,-15.5,·
BJeLR viability,-10.5,-9.2,-5.7,2.0,-9.5,-1.8,2.9,·
Mtb hypoxia rep,-1.7,8.9,7.7,6.1,4.6,-5.9,6.2,19.0
Mtb hypoxia rep growth,12.4,3.3,-3.4,2.9,6.9,-3.1,4.3,12.8

17	N=C1C(c2nc3ccccc3s2)=C(O)CN1NC(=O)c1ccccc1[N+](=O)[O-]
18	CCC(C(=O)OCC(=O)Nc1c(C)nn(-c2ccccc2)c1C)c1ccccc1 (centres undefined)
19	CC1=C([N+](=O)[O-])C(c2ccccc2)C2=C(N1)c1ccccc1C2=O (centres undefined)
20	CCC(=O)Nc1c(-c2ccc(Cl)cc2)c(=O)c2ccccc2n1C
21	O=C(NCc1ccccn1)C1CCN(S(=O)(=O)c2ccccc2F)CC1
22	Cc1cccc(C(=O)NCCN2CCOCC2)c1[N+](=O)[O-]
23	Cc1ccc(OCCSC2=NN2c2cc(C)nc(N)n2)cc1
24	C=CC[C@@H](CC(=O)N[C@@H](CO)Cc1ccccc1)C(=O)N[C@H](COC(=O)[C@@H](CC=C)CC(=O)OC(C)(C)C)Cc1c[nH]c2ccccc12

Assay by compound,17,18,19,20,21,22,23,24
ugtP null kill,-3.6,11.4,-14.8,15.8,1.3,3.0,7.3,-22.5
Bead autofluor,3385,4625,?,3007,3946,2140,4125,4079
RN4220 kill,4.7,5.0,1.6,3.0,3.1,1.3,-3.8,-3.6
PrP UTR inh,-34.1,-2.8,53.6,-4.6,-20.4,-20.7,-8.7,-25.9
BJeLR viability,-0.7,-3.6,12.8,4.2,·,-31.3,2.6,·
Mtb hypoxia rep,2.2,7.3,-12.9,4.5,-0.3,6.0,2.5,-6.0
Mtb hypoxia rep growth,1.0,0.0,6.5,1.3,4.4,-2.0,9.8,6.1

25	O=C(Nc1c2c(nn1-c1ccc(F)cc1)CS(=O)C2)c1ccc(S(=O)(=O)N2CCOCC2)cc1 (centres undefined)
26	O=C(O)C1=C[C@H](c2ccc(Br)cc2)C[C@H](OCc2ccc(CO)cc2)O1
27	N#CC1(NC(=O)CN2CCc3ccccc3C2)CCCC1
28	CCOC(=O)C1C2COc3ccc(Br)cc3C2N2C(=O)N(c3ccc(Cl)cc3)C(=O)[C@]12C (some centres undefined)
29	CCOCCn1c(=O)c2c(nc3n2CCCN3CCc2ccccc2)n(C)c1=O
30	COc1ccc2nc(NC(=O)Nc3cccc4ccccc34)sc2c1
31	CC(C)c1nnc(NC(=O)CCC(=O)Nc2ccc(F)cc2)s1
32	COC(=O)c1ccc(COc2ccc3c(C)c(C)c(=O)oc3c2)o1

Assay by compound,25,26,27,28,29,30,31,32
ugtP null kill,2.9,·,1.3,-5.5&-11.1,-0.1,-1.3,4.3,1.8
Bead autofluor,2023,3289,3398,·,4641,4827,2340,4639
RN4220 kill,1.0,·,4.8,-3.8&-1.4,-0.3,-7.5,-10.7,4.7
PrP UTR inh,-20.0,-26.7,-16.7,·,-17.9,-63.2,-7.2,-9.9
BJeLR viability,4.0,-18.2,·,·,-0.7,-4.5,3.0,-1.4
Mtb hypoxia rep,-0.6,·,1.7,8.3&-5.8,2.6,5.4,3.7,3.8
Mtb hypoxia rep growth,7.2,·,10.8,6.3&0.0,-0.8,1.0,-1.4,0.8

33	COc1cc(NS(=O)(=O)c2cc(C(=O)NCCc3ccccn3)ccc2OC)cc(OC)c1
34	Cc1cc(C(=O)NN=C2CCCCCCC2)c2ccccc2n1
35	COC(=O)Nc1nc(C)c(C(=O)c2ccccc2)s1
36	CCOc1ccc(NC(=O)CN(C)C(=O)/C=C/c2ccc(S(=O)(=O)N3CCCCCC3)cc2)cc1OCC
37	CSCCC(NC(=O)c1ccco1)C(=O)OCc1cc([N+](=O)[O-])cc2c1OCOC2 (centres undefined)
38	Cc1ccccc1C(=O)N1CCC(C(=O)Nc2cccc(S(=O)(=O)N3CCCCC3)c2)CC1
39	CSc1ncc(OCc2ccccc2)c(=O)[nH]1
40	Cc1cc(C(=O)Nc2ncn(Cc3ccc(F)cc3)n2)ccc1[N+](=O)[O-]

Assay by compound,33,34,35,36,37,38,39,40
ugtP null kill,8.5,3.8,1.6,5.6,7.8,-7.0,-5.9,5.5
Bead autofluor,4336,5434,3362,4206,4163,4140,·,4444
RN4220 kill,2.5,1.7,2.6,2.5,1.6,-0.8,3.5,5.8
PrP UTR inh,-18.7,-3.9,-16.0,1.7,-24.8,-9.6,-14.4,4.0
BJeLR viability,·,-6.7,-2.1,-0.4,2.6,·,-14.7,-4.3
Mtb hypoxia rep,2.4,4.3,4.8,3.4,7.1,6.6,-14.6,8.2
Mtb hypoxia rep growth,8.4,5.9,-2.7,-15.2,6.4,3.4,-8.3,6.2

41	O=C(Cc1ccccc1Cl)Nc1ccc(S(=O)(=O)Nc2nccs2)cc1
42	COc1ccc2cc(C#N)c(N3CCN(C(=O)c4ccccc4C)CC3)nc2c1
43	COc1cc2cc(C(=O)Nc3ccccc3)c(N)nc2cc1OC
44	COC(C[C@@H]1O[C@H]1[C@@H](O)COCc1ccccc1)OC
45	Cn1cnnc1SCC(=O)NC(=O)NCc1ccccc1
46	O=C(/C=C/c1ccco1)NC(=S)Nc1nc(-c2ccc(Cl)cc2)cs1
47	Oc1ccccc1-c1nnc(SCCN2CCOCC2)n1Cc1ccccc1
48	Cc1c(C(=O)Nc2cccnc2)oc2ccc(Br)cc12

Assay by compound,41,42,43,44,45,46,47,48
ugtP null kill,-3.7,0.4,-9.2,·,13.5,23.8,-4.3,7.4
Bead autofluor,5805,5382,2767,3624,6737,2472,3753,3845
RN4220 kill,10.0,-6.4,-1.4,·,4.0,-9.4,14.6,4.2
PrP UTR inh,-17.6,-22.5,-20.1,-5.0,-4.0,-17.6,3.6,-101.6
BJeLR viability,-3.4,-5.2,-1.4,-7.5,·,13.1,30.8,4.1
Mtb hypoxia rep,21.1,-5.1,·,·,7.9,11.7,7.8,9.2
Mtb hypoxia rep growth,15.1,6.8,·,·,-3.2,-0.7,4.7,2.7

# A draw from above in order of SMILES length, smallest number first.
45	Cn1cnnc1SCC(=O)NC(=O)NCc1ccccc1
43	COc1cc2cc(C(=O)Nc3ccccc3)c(N)nc2cc1OC
47	Oc1ccccc1-c1nnc(SCCN2CCOCC2)n1Cc1ccccc1
44	COC(C[C@@H]1O[C@H]1[C@@H](O)COCc1ccccc1)OC
42	COc1ccc2cc(C#N)c(N3CCN(C(=O)c4ccccc4C)CC3)nc2c1

Assay by compound,45,43,47,44,42
ugtP null kill,13.5,-9.2,-4.3,·,0.4
Bead autofluor,6737,2767,3753,3624,5382
RN4220 kill,4.0,-1.4,14.6,·,-6.4
PrP UTR inh,-4.0,-20.1,3.6,-5.0,-22.5
BJeLR viability,·,-1.4,30.8,-7.5,-5.2
Mtb hypoxia rep,7.9,·,7.8,·,-5.1
Mtb hypoxia rep growth,-3.2,·,4.7,·,6.8

# Other structures follow.
49	C=CCNC(=O)CN1N=C(c2ccc(C)cc2)CCC1=O
50	O=C(CSc1nc(-c2cccs2)cc(C(F)(F)F)n1)Nc1cc(OCC(F)(F)C(F)F)cc([N+](=O)[O-])c1
51	O=C(/C=C\c1cccs1)c1c(O)ccc2ccc(=O)oc12
52	CC(C)=CC[N+]1(C)CCCCC1
53	CCCCCCCCNC(=O)C(CCC(=O)OCc1ccccc1)NC(C)=O (centres undefined)
54	O=C1Nc2ccc([N+](=O)[O-])cc2OC1CCN1CCN(Cc2ccccc2)CC1 (centres undefined)
55	Cc1cccc(C(=O)OC2CCOC2=O)c1C (centres undefined)
56	COc1ccc(NC(=O)/C=C/c2cc(OC)c(OC)c(OC)c2)cn1

Assay by compound,49,50,51,52,53,54,55,56
ugtP null kill,4.0,-9.3,-7.3,10.6,-5.2,-0.9,-2.7,8.2
Bead autofluor,3397,2550,2468,2442,5252,4301,4343,4225
RN4220 kill,2.0,20.5,18.6,4.9,1.8,0.1,-1.5,-0.2
PrP UTR inh,-15.0,-13.6,-14.6,6.4,-14.6,-27.7,2.4,-5.8
BJeLR viability,7.8,10.8,4.9,·,0.4,2.8,-10.4,4.7
Mtb hypoxia rep,8.1,8.8,15.1,-4.0,9.9,-1.3,-11.0,2.2
Mtb hypoxia rep growth,4.1,7.9,11.8,0.9,17.8,14.5,-12.8,6.8

57	O=c1oc(Nc2ccccc2Cl)nc2ccccc12
58	COc1ccc(CC(=O)Nc2nc3ccccc3[nH]2)cc1
59	Cc1ccsc1C(=O)C1CCCN(Cc2cccn2-c2ccccn2)C1 (centres undefined)
60	COc1ccccc1NC(=O)C1CCCN(S(=O)(=O)c2ccc3c(c2)CC(C)N3C(C)=O)C1 (centres undefined)
61	Cc1ccc(CC(=O)NC2CCN(C)CC2)cc1
62	CCCC1(C)Nc2ccccc2-c2nc3ccccc3n21 (centres undefined)
63	CCOC(=O)c1[nH]cnc1C(=O)Nc1ccncc1

Assay by compound,57,58,59,60,61,62,63
ugtP null kill,7.6,3.3,-0.4,4.0,8.0,5.1,8.3
Bead autofluor,4160,3657,4129,3873,3795,11262,4490
RN4220 kill,1.1,-1.8,0.3,3.1,2.7,5.9,0.8
PrP UTR inh,-40.5,-21.5,-21.2,-21.6,-12.1,-90.9,-13.0
BJeLR viability,-7.5,3.5,4.7,-3.0,1.3,23.1,-6.6
Mtb hypoxia rep,9.8,6.6,12.5,8.7,12.9,11.4,·
Mtb hypoxia rep growth,1.5,-1.7,3.9,-0.8,2.5,7.3,·

# Screening data from PubChem.
